WNV protease inh: inhibitors of WNV NS2B-NS3 protease, primary screen, biochemical, fluorogenic substrate; Genome polyprotein (West Nile virus), P06935; fluorogenic substrate Ex360/Em465; stronger effect = lower value; AID 577, 2007; z-score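 (tested at a level between 10 and 100 µM)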; actives 0.18% (n = 65,000);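 active = z-score at -3 or under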;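 note: score is relative to mean and spread of the compound wells of a plate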
Target sequence (P06935 1371-1501 limits assumed): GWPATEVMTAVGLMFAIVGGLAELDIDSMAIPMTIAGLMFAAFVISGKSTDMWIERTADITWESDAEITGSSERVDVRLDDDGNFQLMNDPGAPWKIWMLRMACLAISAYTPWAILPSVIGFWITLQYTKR
Target sequence (P06935 1502-1679 limits assumed): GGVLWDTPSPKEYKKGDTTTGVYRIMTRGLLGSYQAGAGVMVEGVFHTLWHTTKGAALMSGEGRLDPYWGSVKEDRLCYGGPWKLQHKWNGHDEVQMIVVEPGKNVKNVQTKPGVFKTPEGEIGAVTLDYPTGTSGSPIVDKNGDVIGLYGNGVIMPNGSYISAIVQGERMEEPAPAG
MT1-MMP reporter: inhibitors of MT1-MMP promoter transcription, cell-based, luciferase reporter, luminescence (AID 618); MT1-MMP promoter luciferase reporter cells, luminescence; calls from a first round at 10 µM; hits with a dose series show EC50 in µM; actives 0.62% (n = 87,000);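 active = over half of the reporter light lost at 10 µM or EC50 under 50 µM; inactive = the rest and hits that failed the dose series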;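 note: actives suppress MT1-MMP promoter-driven transcription so potencies describe inhibitors; HT1080 fibrosarcoma cells; overnight exposure; toxic or luciferase-blocking compounds were not removed from the actives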
Hsc70: Hsc70 inhibitors, probe displacement, primary screen, biochemical, fluorescence polarization (AID 568); displacement, % at 20 µM, or IC50 in µM where a hit was titrated; Heat shock cognate 71 kDa protein (Homo sapiens); 83,000 tested, under 10 active; Hsc70 fluorescence polarization, probe displacement; higher % means a stronger effect; strong numbers were not always called active;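 active = displacement above 50% without optical interference and an IC50 on retest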;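 note: ATPase domain with a fluorescein-tagged ATP probe; 0% = vehicle and 100% = excess ADP; read after one hour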
The depositor's hits bear a star; i = inactive; nt = no result given; + = active, no number.

SMILES | WNV protease inh | MT1-MMP reporter | Hsc70
Cn1ncc2c(NCc3ccccc3)ncnc21 | -0.52 | i | 6.4%
O=C1Cc2ccccc2C(c2ccc(Br)cc2)N1 (centres undefined) | nt | i | 6.4%
COc1ccc2c(c1)[nH]c1c(=O)n(CCN(C)C)cnc12 | -0.17 | i | -0.5%
O=S(=O)(NC1CC1)c1ccc(S(=O)(=O)N2CCCC3(CCCCC3)C2)cc1 | 0.82 | i | -0.9%
COCCn1c(-c2ccc(-c3ccccc3Cl)o2)nc2c1c(=O)[nH]c(=O)n2CC(C)C | 0.52 | i | -55.7%
CC(=O)Nc1ccc(C(=O)Nc2ccc(S(=O)(=O)N3CCCC3)cc2)cc1 | -0.46 | i | -0.6%
COc1ccc(CC(NC(=O)c2ccccc2)C(=O)NCC(=O)O)cc1 (centres undefined) | 2.07 | i | 2.3%
O=C(Nc1ccccc1-c1ccccc1)c1ccc(NC(=O)c2ccco2)cc1 | nt | i | -4.3%
O=[N+]([O-])c1cnccc1Nc1ccc(F)cc1 | nt | i | 5.9%
CCOC(=O)C1C(=O)NC(N2CCN(Cc3ccccc3)CC2)=NC1c1ccccc1 (centres undefined) | nt | i | 2.6%
O=C(CSc1nc(N2CCCCC2)nc(N2CCCCC2)n1)NC1CCCCC1 | -0.46 | i | -3.2%
CC(C)NC(=O)c1cc2c(-c3ccc(Cl)cc3)nn(C)c2s1 | -0.43 | i | -1.5%
CCc1nc(NCc2ccc3c(c2)OCO3)c2oc3ccccc3c2n1 | nt | i | -2.4%
CCN(CC)S(=O)(=O)c1ccc(C(=O)OCn2nnc3ccccc3c2=O)cc1 | -0.18 | i | -0.7%
O=C(NCC1CCCO1)C(c1cccs1)N(Cc1cccs1)C(=O)Cn1nnc(-c2cccs2)n1 (centres undefined) | nt | i | -1.5%
O=C(NCc1ccccn1)C1CCN(S(=O)(=O)N2CCCC2)CC1 | -0.21 | i | -2.7%
CCN(CC)C(=O)c1cnn(-c2ccccc2)c1NC(=O)c1ccco1 | nt | i | 2.8%
Cn1nc(C(=O)OCC(=O)N2CCc3ccccc32)c2ccccc2c1=O | -0.59 | i | 6.1%
N#Cc1c(/N=C/c2cccs2)sc2c1CCCCC2 | -1.01 | + | 5.9%
COc1ccc(/C=C2\N=C(SC)SC2=O)cc1OC | nt | i | -4.0%
Cn1c(SCc2nc(-c3cccs3)no2)nnc1C1CCCCC1 | 0.22 | i | -5.9%
Cc1nc2nc(SCC(=O)NCc3ccco3)nn2c(C)c1Cc1c(F)cccc1Cl | 0.58 | i | -0.7%
Cc1c(C#N)c(N)c(C(=O)c2ccccc2)n1Cc1ccccc1 | 0.57 | i | -1.9%
CCOC(=O)N1CCN(C(=O)c2oc3ccc(S(=O)(=O)N4CCOCC4)cc3c2C)CC1 | 0.27 | i | 0.9%
Cc1cc(NC(=O)CSc2nnc(-c3cccnc3)n2C)no1 | -0.52 | i | -7.7%
O=C(CSc1ncnc2c1oc1ccccc12)NCC1CCCO1 (centres undefined) | 1.66 | i | 1.3%
CC1CN(c2oc(-c3ccco3)nc2C#N)CC(C)O1 (centres undefined) | -0.16 | i | -1.0%
CCOc1ccccc1Nc1nnc(SCc2ccc(C(=O)OC)o2)s1 | 0.97 | i | -3.5%
CCOC(=O)C1C(=O)CC(C)(O)C(C(=O)OCC)C1c1cccc(OC(F)(F)C(F)F)c1 (centres undefined) | 0.16 | i | 2.4%
COc1ccc(C(C)=O)cc1COc1ccc(-n2cnnn2)cc1 | nt | i | 1.7%

Compound profiles, from the list above. Values in the order: WNV protease inh	MT1-MMP reporter	Hsc70
O=C(CSc1ncnc2c1oc1ccccc12)NCC1CCCO1 (centres undefined) is listed as 1.66	i	1.3%
CCOC(=O)N1CCN(C(=O)c2oc3ccc(S(=O)(=O)N4CCOCC4)cc3c2C)CC1 is listed as 0.27	i	0.9%
COc1ccc(C(C)=O)cc1COc1ccc(-n2cnnn2)cc1 is listed as nt	i	1.7%
Cc1nc2nc(SCC(=O)NCc3ccco3)nn2c(C)c1Cc1c(F)cccc1Cl is listed as 0.58	i	-0.7%

Taken from above (two entries):
SMILES | WNV protease inh | MT1-MMP reporter | Hsc70
CCOC(=O)C1C(=O)CC(C)(O)C(C(=O)OCC)C1c1cccc(OC(F)(F)C(F)F)c1 (centres undefined) | 0.16 | i | 2.4%
COc1ccc(C(C)=O)cc1COc1ccc(-n2cnnn2)cc1 | nt | i | 1.7%

(further entries)
SMILES | WNV protease inh | MT1-MMP reporter | Hsc70
Nn1c(COc2ccccc2)nnc1SCc1cc(=O)[nH]c2ccccc12 | 1.11 | i | -5.4%
CN1CCN(c2nc3c(c(=O)n(C)c(=O)n3C)n2CC(=O)C23CC4CC(CC(C4)C2)C3)CC1 | -0.6 | i | -9.5%
CCOC(=O)c1csc(NC(=O)CSc2nnnn2CC)n1 | -0.51 | i | -0.6%
COc1cc(-c2csc(C)n2)ccc1O | 1.24 | i | -3.8%
CCC1(C(=O)OC)NC(c2ccco2)C2C(=O)N(c3ccccc3)C(=O)C21 (centres undefined) | -0.99 | i | 13.7%
CC1=[N+]([O-])C(C)(C)C(C)N(O)C1=O (centres undefined) | 0.81 | i | -1.1%
CCCC(c1nnnn1Cc1cccs1)N1CCN(c2nc3ccccc3s2)CC1 (centres undefined) | 0.76 | i | 9.2%
Oc1ccc(-n2cnnn2)cc1 | nt | i | 2.4%
CCc1nnc(NC(=O)CSc2nc3c(cc2C#N)CCC3)s1 | -0.26 | i | -8.5%
Cc1ccc(Cn2nnnc2CN2CCC(O)(c3ccc(F)cc3)CC2)cc1 | 0.15 | i | 3.9%
CC(=O)Nc1ccc(S(=O)(=O)N2CCC(NC(C)=O)(c3cccc(F)c3)CC2)cc1 | -0.91 | i | 1.6%
CC(Oc1ccc(Cl)cc1)C(=O)Nc1ncccn1 (centres undefined) | -1.14 | i | -9.0%
COc1cc(NC(=O)CN2CC(c3ccccc3)CC2=O)cc(OC)c1 (centres undefined) | 0.59 | i | -3.1%
CCn1c(=O)cc(N2CCCCC2)[nH]c1=O | 0.75 | i | -0.9%
Cc1ccc(C)c2[nH]c(=O)c(C(c3nnnn3CCc3ccccc3)N3CCOCC3)cc12 (centres undefined) | -0.35 | i | 1.9%
COc1ccc(-n2c(Cc3cccn3C)nnc2SCC(=O)Nc2ccccc2OC)cc1 | 0.29 | i | 6.7%
O=C(c1cnn(-c2ccccc2)c1-n1cccc1)N1CCN(C2CCCCC2)CC1 | -1.13 | i | 0.1%
COc1ccc(-c2nnc(N)s2)cc1 | 1.47 | i | -8.4%
Cc1nc2nc3c(cn2n1)C(=O)CC(C)(C)C3 | -0.21 | i | -3.0%
Cc1ccc2c(c1)CCCN2C(=O)c1ccc2c(c1)OCO2 | -0.24 | i | -2.5%
Cn1nnnc1SCC(=O)N1CCN(c2cccc(Cl)c2)CC1 | -0.18 | i | 0.4%
C=C(C)Cn1c(CCNC(=O)CCC)nc2ccccc21 | -0.57 | i | -2.1%
COc1ccc(NS(=O)(=O)c2cccc3cccnc23)cc1 | 0.02 | i | 7.8%
COc1ccc(Br)cc1C(=O)Nc1cccc(-c2nnc(-c3ccco3)o2)c1 | 0.23 | i | 0.7%
Cc1sc2nc(C(C)Sc3nnc(C)n3-c3ccccc3)[nH]c(=O)c2c1C (centres undefined) | -0.86 | i | -2.1%
C#CCSc1nnc(-c2cccc3ccccc23)o1 | -0.69 | i | -6.3%
COc1cc2c(cc1OC)CN(C(=O)c1ccc(OC)c(S(=O)(=O)N3CCOCC3)c1)CC2 | 0.07 | i | 6.1%
CC12CC(NC(=O)N1c1ccc(C(=O)N3CCN(c4ccc(F)cc4)CC3)cc1)c1ccccc1O2 (centres undefined) | -0.49 | i | -1.2%
c1ccc(CCc2nc(-c3ccncc3)no2)cc1 | 0.08 | i | 1.4%
Cc1cccc2cc(C#N)c(SCC(=O)N3CC(=O)Nc4ccccc43)nc12 | -1.19 | i | -22.3%
CC(NC(=O)Nc1nnc(C(F)(F)F)s1)N1C(=O)C2C3C=CC(C3)C2C1=O (centres undefined) | -1.2 | i | -6.7%
COc1ccc(-c2noc(CN3CCN(c4ccccc4)CC3)n2)cc1 | -0.72 | i | -2.0%
O=C(c1ccccc1)N1CCN(Cc2ccccc2Br)CC1 | -0.49 | i | -3.5%
CCOC(=O)c1c(NC(=O)CCl)sc(C(=O)N(CC)CC)c1C | nt | + | -2.3%
Cc1[nH]n(-c2ccccc2)c(=O)c1-c1ccccc1 | -0.37 | i | 11.1%
CCOC(=O)C1=C(O)CSC1=Nc1cccc(Cl)c1 | 0.81 | i | -2.7%
CC(=O)c1cccc(NC(=O)CC2Oc3ccc(C)cc3NC2=O)c1 (centres undefined) | -0.64 | i | 2.6%
CC(C)CNC(=O)COC(=O)c1cc(S(=O)(=O)N2CCCCC2)ccc1N1CCOCC1 | -1.07 | i | 2.9%
Fc1ccc(-c2nnc(CN3CCN(c4ncc(C(F)(F)F)cc4Cl)CC3)o2)cc1 | -0.93 | i | 0.9%
COC(=O)c1[nH]c2ccc(C)cc2c1NC(=O)CN1CCc2cc(OC)c(OC)cc2C1 | 0.5 | i | 5.2%
Cc1c(C(=O)N2CCOCC2)[nH]c2c1C(=O)CC(c1ccccc1Cl)C2 (centres undefined) | -1.88 | i | -6.1%
CC(=O)c1ccc(CCCCCCCCCC(=O)O)s1 | nt | i | -0.2%
COc1ccc(C(=O)Nc2ccc(Cl)cn2)cc1Cl | 0.24 | i | 0.8%
CCOc1ccccc1C1CC(=O)Nc2cc3c(cc21)OCCO3 (centres undefined) | -0.41 | i | 0.3%
COC(=O)c1ccc(C2C(C(=O)OC(C)C)=C(C)N=C3SCCC(=O)N32)cc1 (centres undefined) | -0.08 | i | -4.5%
COc1ccc(CN2CCN(C(=O)CN3C(=O)C4C5C=CC(C5)C4C3=O)CC2)c(OC)c1OC (centres undefined) | 0.26 | i | 0.7%
CC(C)COc1ccc(C(=O)NC(CC(C)C)C(=O)O)cc1 (centres undefined) | -0.24 | i | 1.2%
CC(NC(N)=O)C(=O)OCc1ccc(Cl)cc1Cl (centres undefined) | nt | i | 1.6%
Cc1nn(Cc2nc(-c3cccs3)no2)c(C)c1Br | -0.13 | i | 1.5%
COc1cc(NS(=O)(=O)c2ccc(C)cc2)ccc1-n1cnnn1 | -0.7 | i | 1.2%

More entries follow:
SMILES | WNV protease inh | MT1-MMP reporter | Hsc70
Cc1cccc(NC(=O)CSc2n[nH]c(-c3ccncc3)n2)c1 | -0.37 | i | 0.7%
CC(C)C(C(=O)OCC(=O)c1ccc2c(c1)NC(=O)CO2)N1C(=O)c2ccccc2C1=O (centres undefined) | -0.44 | i | -3.7%
CN(C)CCCOC(=O)CCc1ccccc1 | -0.44 | i | -2.1%
C=CCOc1ccc2ccccc2c1CNc1ncn[nH]1 | -0.49 | i | 0.8%
CCc1ccc2[nH]c(=O)c(CN(Cc3ccc(F)cc3)C(c3nnnn3CCN3CCOCC3)C(C)C)cc2c1 (centres undefined) | nt | i | -6.3%
CCOc1ccc(-c2nc3n(c(=O)c2C#N)CCCS3)cc1 | -1.52 | i | 35.3%
CCOC(=O)c1csc(NC(=O)CSc2nnnn2-c2cccc(OC)c2)n1 | nt | i | 8.3%
CCc1ccc(C(=O)Nc2nnn(CC)n2)cc1 | 0.65 | i | -13.7%
CCOC(=O)N1CCC(NC(=O)C(C)n2c3ccccc3c3cnn(C)c(=O)c32)CC1 (centres undefined) | -0.72 | i | -2.0%
COc1cc(C(c2sc3nc(C)nn3c2O)N2CCOCC2)cc(OC)c1OC (centres undefined) | 0.48 | i | -3.7%
C=CCn1c(Cc2cccs2)nnc1SCC(=O)Nc1cccc(OC)c1 | 0.59 | i | -0.5%
CC(=O)Nc1ccc(C)cc1NC(C)=O | -0.8 | i | 5.7%
COC(=O)CC(NC(=O)c1ccco1)c1cccc2ccccc12 (centres undefined) | nt | i | 3.5%
O=C(Nc1ccc(F)cc1)c1ccccc1F | nt | i | 31.1%
CCc1nnc(NC(=O)CSc2nc(C)c3c(c2C#N)CCCC3)s1 | -0.65 | i | -1.1%
COC(=O)c1ccccc1NC(=O)c1ccco1 | -0.9 | i | -2.0%
O=C(Nc1ccon1)c1ccc2c(c1)OCO2 | 0.75 | i | 11.1%
CC(c1nnc(SCC(=O)NC(=O)NCc2ccco2)n1-c1ccc(Cl)cc1)N(C)C (centres undefined) | 0.16 | i | -4.0%
CCOCCCNc1nc2c(c(=O)[nH]c(=O)n2C)n1CCCc1ccccc1 | -1.18 | i | 6.0%
O=C1C(=O)N(Cc2cccnc2)C(c2ccccn2)/C1=C(/O)c1ccc(Br)cc1 (centres undefined) | 0.5 | i | 1.7%
CCSc1nc(N2CCOCC2)c2c(c1C#N)CC(C)(C)N(C)C2 | nt | i | 2.7%
CCCC(=O)NCCc1cc2cc(C)c(C)cc2[nH]c1=O | 0.46 | i | 2.2%

Screens deposited in PubChem BioAssay by several laboratories.

Rows were taken by chance, and some 0.87% of all compounds hit somewhere here.
